NS1 inh = blocks influenza NS1 protein function; 270,000 tested, 0.4% active; S. cerevisiae slowed by influenza A NS1, growth recovery by OD600; Potency, µM (doses to about 46.1 µM), inactives show top-dose activity, positive = more growth; active means well fitted rising curve with a large enough effect; inconclusive means small, poorly fitted or top-dose-only effect; inactive means no such curve, though single readings can be large or run the other way; also: nearly all actives have a fitted effect of over 50% in size
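In this qHTS, NS1 from influenza A is expressed in budding yeast, where it slows growth. Cells are switched from glucose to 2% galactose medium (pH 6.0, -URA), treated with compound, and growth recovery is read at OD600.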
Cruzain inh noDet = blocks cruzain activity in detergent-free assay. P25779. purified cruzain, Z-FR-AMC fluorescence, no detergent. Potency, µM, for the others: max response, negative = inhibition, usual class: inhibitors. 200,000 tested, 2.3% active;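 also: plate controls were enzyme without inhibitor for no effect and buffer without enzyme for full effect; nearly all actives have a fitted effect of over 40% in size; top concentration of the series not given in the record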
Target sequence (P25779 123-467 limits assumed): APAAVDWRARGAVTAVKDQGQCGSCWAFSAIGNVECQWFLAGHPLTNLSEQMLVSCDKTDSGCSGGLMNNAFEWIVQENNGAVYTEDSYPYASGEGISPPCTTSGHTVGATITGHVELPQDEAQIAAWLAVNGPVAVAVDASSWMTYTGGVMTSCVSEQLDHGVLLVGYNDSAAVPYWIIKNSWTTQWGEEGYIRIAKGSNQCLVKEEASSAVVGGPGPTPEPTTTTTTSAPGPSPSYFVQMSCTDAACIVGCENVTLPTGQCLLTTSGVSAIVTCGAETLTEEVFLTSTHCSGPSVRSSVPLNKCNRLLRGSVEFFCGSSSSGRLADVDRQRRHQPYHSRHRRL
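Detergent-free condition (0.00005% Triton X-100) in acetate buffer pH 5.5 with DTT. 1.5 nM enzyme and compound were pre-mixed 15 min, then 2 uM Z-FR-AMC substrate added; reaction progress from fluorescence change between first and third reads (60 s).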
2A StopGo = FMDV 2A StopGo reporter, luciferase signal | Potency, µM (titrated, usually from 57.9 µM), for the others: top-dose signal change, negative = less light | AID 1159524 | 410,000 tested, 1.2% active | human cells with a luciferase reporter of 2A StopGo recoding; control for the full effect not named in the record; active = well fitted falling curve with a large enough effect; inconclusive = small, poorly fitted or top-dose-only effect; inactive = no such curve, though single readings can be large or run the other way; tested in HEK293T cells; also: % is scaled to controls: 0 for no effect and ±100 for the full control effect; nearly all actives have a fitted effect of over 45% in size; luciferase light after 4 h
LASV entry inh = blocks Lassa virus binding to or entry into cells | Lassa virus pseudotype entry inhibition, cell reporter; control for the full effect not named in the record | Potency, µM (titrated, usually from 37.9 µM), inactives show at the top dose activity change, negative = inhibition, actives largely listed as inhibitors | 300,000 tested, 1.2% active | AID 540256; active means well fitted inhibition curve with a large enough effect; inconclusive means small, poorly fitted or top-dose-only effect, or effect the other way; inactive means flat fitted curve, though single readings scatter; tested in HEK293 cells; also: % is scaled to controls: 0 for no effect and ±100 for the full control effect; nearly all actives have a fitted effect of over 50% in size; luciferase read-out
SARS PLpro yeast = blocks SARS-CoV papain-like protease in a yeast assay; AID 485353; Potency, µM (titrated, usually from 32.9 µM), inactives show at the highest dose activity, positive = growth rescue; 330,000 tested, 0.19% active; S. cerevisiae expressing SARS-CoV PLpro, growth rescue; control for the full effect not named in the record; active means well fitted rising curve with a large enough effect; inconclusive means small, poorly fitted or top-dose-only effect; inactive means no such curve, though single readings can be large or run the other way; also: 0% is about no effect; nearly all actives have a fitted effect of over 55% in size; growth read by luminescence after 48 h
RE007 growth inh = less growth of the S. pombe RE007 Vpr strain. S. pombe RE007 Vpr strain, BacTiter-Glo ATP luminescence, 24 h; control for the full effect not named in the record. 360,000 tested, 0.21% active. AID 651644. Potency, µM (doses to about 92.2 µM), inactives show at the top dose activity change, negative = less growth; active = well fitted falling curve with a large enough effect; inconclusive = small, poorly fitted or top-dose-only effect; inactive = no such curve, though single readings can be large or run the other way;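 also: % is scaled to controls: 0 for no effect and ±100 for the full control effect; nearly all actives have a fitted effect of over 50% in size; the assay follows cell death caused by Vpr and the record does not say whether a fall means rescue or toxicity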
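Fission yeast RE007 carrying one integrated HIV-1 vpr copy, seeded at OD 0.01 in PMG+AL medium with 23 nL pinned compound. Grown 24 h at 30 degrees; viability read by BacTiter-Glo luminescence after 5 min.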
Cruzain Triton = cruzain (T. cruzi) inhibition with detergent; AID 1478; Potency, µM, without a hit: max response, negative = inhibition, actives largely listed as inhibitors; purified cruzain, Z-FR-AMC fluorescence, 0.01% Triton; P25779; 200,000 tested, 0.43% active;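 also: plate controls were neutral wells for no effect and buffer without enzyme for full effect; nearly all actives have a fitted effect of over 40% in size; top concentration of the series not given in the record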
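Z-FR-AMC hydrolysis (2 uM substrate) by cruzain (1.5 nM) monitored kinetically at ex 360/em 450 nm after 15 min room-temperature compound exposure; 0.01% Triton X-100, pH 5.5, 5 mM DTT.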
MARV entry inh = Marburg virus entry inhibition | Marburg virus pseudotyped entry inhibition, cell reporter; control for the full effect not named in the record; about a third of the inactives were read at about 46 µM | Potency, µM (series often up to 37.8 µM), inactives show top-dose activity change, negative = inhibition, hits mostly inhibitors | 300,000 tested, 1.8% active; active = well fitted inhibition curve with a large enough effect; inconclusive = small, poorly fitted or top-dose-only effect, or effect the other way; inactive = flat fitted curve, though single readings scatter; tested in HEK293 cells; about a fifth of its hits are not listed in these tables; also: % is scaled to controls: 0 for no effect and ±100 for the full control effect; luciferase read-out
An asterisk follows results filed as active; ? = inconclusive; / = not tested or not shown; & = joins results of further samples; [ ] = dose if it differs, or a comment. Unless noted, calls follow the shape of the dose curve; as a rule, active = well fitted curve in the direction sought with a large enough effect; inconclusive = small, poorly fitted or top-dose-only effect, or another doubt; inactive = no such curve, though single readings can be large; an effect the other way counts as inactive or inconclusive. Potency is read from the fitted curve at half-maximal effect. Rows are unselected, and some 4.8% of all compounds hit somewhere here.

SMILES	NS1 inh	Cruzain inh noDet	2A StopGo	LASV entry inh	SARS PLpro yeast	RE007 growth inh	Cruzain Triton	MARV entry inh
COc1ccc(CNC(=O)CS(=O)Cc2nc(-c3cccc(C)c3)oc2C)cc1 (stereo not given)	/	8%	-9%	-11%[46.1 µM]	/	/	-7.1%	-5%[46.1 µM]
CC(=O)N1CCN(c2csc3ccc(Cl)cc3c2=O)CC1	/	-9%	37%[activator]	6%[46.1 µM]	/	/	-6.0%	/
N#Cc1nc(-c2cccs2)oc1N1CCOCC1	0%	?	-8%	-2%	1%	-9%	25µM*	-23%
CCOC(=O)CNC(=O)N1CCC(CCOc2ccccc2)(C(=O)OCC)CC1	-1%	/	-7%	-11%	0%	1%	/	-22%
CC(=C/c1ccccc1)/C=N/n1c(C)n[nH]c1=S	-70%	/	51%[activator]	/	1%	-1%	/	/
COC(=O)C1C(=O)NCC1c1ccc(OC)cc1 (stereo not given)	4%	-3%	-6%	30%	-3%	-10%	9.2%	5%
CCOc1ccc(-n2c(SCc3cc(=O)oc4cc(C)c(C(C)C)cc34)nnc2-c2cccnc2)cc1	0%	8%	-22%	-5%	20%	-12%	-7.3%	-21%
CS(=O)(=O)c1ccc(NC(=O)CN2C(=O)C3CCCCC3C2=O)cc1 (stereo not given)	10%	/	-2%	/	0%	1%	/	/
Cc1sc2nc(SCC(=O)NCCCO)n(-c3ccccc3)c(=O)c2c1C	10%	/	-6%	/	6%	24%	/	/
CCCCN(CC)C(=O)Cc1ccccc1OC	9%	-1%	-28%	?	?	-9%	4.2%	?
C[C@@H]1C(=O)O[C@H]2[C@H]1CC[C@@]1(C)C(=O)C=C[C@@](C)(O)[C@H]21	3%	/	-15%	/	3%	-17%	/	/
CCc1ccc(OC)c(-c2csc(N)n2)c1	-65%	/	-5%	4%	-6%	-21%	/	19%[46.1 µM]
COc1ccc(S(=O)(=O)N2CCC(C(=O)NC3(C)CCS(=O)(=O)C3)CC2)cc1OC (stereo not given)	/	/	0%	12%[46.1 µM]	-2%	-6%	/	20%
Cc1ccc(-c2[nH]ncc2/C=N/n2c(COc3ccccc3)nc3ccccc3c2=O)cc1	12%	-4%	-23%	?	-6%	-1%	-1.9%	?
CCOc1ccc(NC(=O)c2ncn(-c3ccccc3)n2)cc1	/	3%	5%	1%[46.1 µM]	/	/	-2.7%	?
CC(C)OC(=O)C1C(=O)NC2(C)CC1c1ccccc1O2 (stereo not given)	-3%	7%	-20%	-1%	12%	-1%	8.8%	13%
COc1ccccc1N1C(=O)c2cccc3c(C(=O)O)ccc(c23)C1=O	6%	-6%	-7%	18%	2%	21%	0.4%	-2%
O=C1CS(=O)(=O)C2(C(=O)N(Cc3cccc(F)c3)c3ccccc32)N1c1ccccc1 (stereo not given)	/	10µM*	0%	2%[46.1 µM]	/	/	-6.0%	/
Cn1c(=O)c2c(nc(NC3CCCCC3)n2CC(O)COc2ccccc2)n(C)c1=O (stereo not given)	-35%	?	-19%	?	2%	-2%	-1.4%	?
O=CN(CCNc1ccccc1)c1ccccc1	/	/	33%[activator]	-6%[46.1 µM]	/	5%	/	20%
COc1ccc2c(c1)CCc1cn3ncc(C#N)c3nc1-2	-4%	/	10%	-20%	-2%	-4%	/	-9%[46.1 µM]
CCOc1cc(C(=O)Nc2cc(C)ccc2OC)ccc1OCC(=O)N1CCCCC1	3%	?	-18%	1%	3%	4%	-2.8%	-17%
OCCNCc1ccc(OC2CCCC2)cc1	-1%	1%	0%	9%	-2%	-6%	4.7%	1%
O=S(=O)(c1cccs1)N1CCN(Cc2cccc(F)c2)CC1	-2%	/	-23%	/	?	1%	/	/
Nc1nc(SCC(=O)Nc2ccc([N+](=O)[O-])cc2Br)n[nH]1	-4%	-6%	-11%	-1%	-21%	-5%	-3.4%	-21%
CN(C)C(CNC(=O)c1ccc(NC(=O)c2cccs2)cc1)c1ccccc1 (stereo not given)	5%	/	8%	1%[46.1 µM]	3%	-2%	/	?
Cc1ccc(NC2=C(NCCO)C(=O)c3ccccc3C2=O)cc1	-13%	2%	0%	?	-3%	-29%	-11%	?
C=CCn1c(SCCOc2ccc(OC)cc2)nnc1C(C)NC(=O)c1ccc(OC)cc1 (stereo not given)	3%	7%	11%	-2%	17%	4%	-0.9%	-4%
Cc1cccc(N(CC(=O)NCc2ccco2)C(=O)CNS(=O)(=O)c2ccc(F)cc2)c1	-8%	/	3%	10%	2%	-2%	/	-14%[46.1 µM]
Cc1cccc(NC(=O)C2CC(=O)n3cnnc3S2)c1 (stereo not given)	-3%	-8%	11%	2%	-20%	-26%	5.9%	5%
CCCCNC(=O)c1cnn2c(C)c(Cc3c(F)cccc3Cl)c(C)nc12	/	11%	0%	4%[46.1 µM]	/	/	1.9%	/
Cc1ccccc1NC(=O)CCc1c(C)nn(-c2ccc(N3CCOCC3)nn2)c1C	10%	/	-5%	8%[46.1 µM]	21%	10%	/	4%[46.1 µM]
COc1ccc(C(C(=O)NC2CCCC2)N(C(=O)c2snc(C(N)=O)c2N)c2cccc(O)c2)cc1 (stereo not given)	-10%	/	6%	-22%	-1%	-16%	/	?
COc1ccc(/C=N/NC(=S)Nc2cc(S(=O)(=O)N3CCOCC3)ccc2N2CCOCC2)cc1O	10%	?	?	?	14%	-9%	-10%	?
O=C(C1CCCN(S(=O)(=O)c2ccc(F)cc2)C1)N(Cc1cccs1)C1CC1 (stereo not given)	-14%	10%	0%	?	7%	-14%	-3.2%	?
O=C(O)c1cc(S(=O)(=O)N2CCCCC2)ccc1F	12%	1%	7%	1%	0%	7%	4.0%	1%
Cn1c(-c2ccc(F)cc2)cnc1SCC(=O)NNC(=O)Cc1ccccc1	-2%	/	-6%	?	-2%	15%	/	-20%
FC(F)(F)c1nc(SCc2ccc(Cl)cc2Cl)n[nH]1	-77%	/	7%	-25%	-7%	1%	/	22%
Cc1cc(C)c2c(N)c(C(=O)Nc3ccc([N+](=O)[O-])cc3)sc2n1	4%	/	74%[activator]	/	-3%	17%	/	/
O=C(NC(=S)Nc1ccccc1N1CCN(C(=O)c2ccccc2)CC1)c1cccs1	2%	/	-21%	/	0%	-10%	/	/
Cc1cccc2sc(N(Cc3cccnc3)C(=O)C3CCCCC3)nc12	/	7%	-13%	-20%[46.1 µM]	/	/	-5.7%	/
O=C(O)c1ccc2c(c1)C(=O)N(CCc1c[nH]c3ccccc13)C2=O	-1%	/	18%	27%	-2%	6%	/	?
CC(NC(=O)CSC1=NCCS1)c1ccccc1 (stereo not given)	3%	6%	0%	1%	-17%	17%	-1.1%	-1%
Cc1ccc(S(=O)(=O)c2nc(NCCN(C)C)sc2Cl)cc1	8%	-3%	-21%	-17%	?	12%	0.9%	?
CCCCn1c(SCC(=O)N2CCN(c3ccccc3)CC2)nc2ccsc2c1=O	-35%	-11%	?	26%[14.3 µM]	-13%	13%	-0.6%	?
CCCNS(=O)(=O)c1cc(CN2C(=O)c3cccnc3C2=O)ccc1OC	6%	/	-10%	/	-1%	0%	/	/
CCOc1ccc(NC(=O)c2ccccc2-c2ccccc2C(=O)O)cc1	/	/	54%[activator]	4%	/	9%	/	1%
CC(=O)c1cccc(NC(=O)NCc2cccs2)c1	2%	23%	67%[activator]	11%	-7%	5%	0.7%	18%
Cc1ccc(C)c(CSC2=NCCN2C(=O)Cc2ccc([N+](=O)[O-])cc2)c1	5%	-27%	-25%	-5%	-3%	-15%	-3.8%	?
CC1=C(C(N)=O)C(c2ccc(F)cc2)n2nc(CCCO)nc2N1 (stereo not given)	4%	/	-23%	/	1%	-9%	/	/
COc1ccc(-c2cc(C(=O)N(C)Cc3ccc(F)cc3)c3ccccc3n2)cc1OC	/	/	-4%	-18%	/	0%	/	?
COc1ccc(CCNC(=O)N2CCOCC2)cc1	11%	?	-6%	6%	6%	-2%	-3.7%	20%
CCOCCCn1c(=N)c(S(=O)(=O)c2ccccc2)cc2c(=O)n3cc(C)ccc3nc21	-11%	-7%	8%&20%	?	-1%	8%	-1.2%	7%&20%[46.1 µM]
CCOC(=O)C1=C(CC)Nc2ccccc2N=C1NC(=O)c1cccc(S(=O)(=O)N2CCCC2)c1	-8%	22%	-10%	6%	-10%	-16%	0.0%	4%&0%
CCOC(=O)c1ccc(Nc2nc(N)c3cc(OC)c(OC)cc3n2)cc1	5%	23%	6%&-12%	18%[46.1 µM]	0%	-5%	-26%	?
CCCc1nc(SCC(=O)Nc2ccc(S(=O)(=O)N(C)C)cc2)c2ccccc2n1	17%	-7%	-30%	-2%	3%	0%	4.8%	-21%
COc1ccc(C(=O)C2CCCN(Cc3ccon3)C2)c(OC)c1 (stereo not given)	-3%	/	-11%	0%[46.1 µM]	-1%	-1%	/	-16%[46.1 µM]
O=C(CN1C(=O)c2ccccc2C1=O)Nc1nccs1	-7%	/	-14%	/	-1%	-2%	/	/
CCOc1ccc(CCNC(=O)CCCn2c(=O)c3cccn3c3cccnc32)cc1OCC	0%	-5%	?	7%[46.1 µM]	3%	15%	-0.1%	/
CCOC(=O)c1ccc(NC(=S)N2CCCC2)cc1	-8%	/	27%	/	2%	5%	/	/
COc1ccc(N2CCN(C(=O)CN=C3NS(=O)(=O)C(c4ccc(C)cc4)=C3C)CC2)cc1	19%	?	-25%	25%[14.3 µM]	4%	-2%	4.3%	-10%
CC1CN(C(=O)COC(=O)c2ccc(Cl)c(N)c2)CC(C)O1 (stereo not given)	1%	/	-11%	0%	-13%	0%	/	19%[46.1 µM]
CC(C(=O)N1c2ccc(F)cc2CCC1C)N1C(=O)c2ccccc2C1=O (stereo not given)	2%	1%	?	-5%	-3%	20%	7.7%	6%
